# CSC inhib = cancer stem cell viability inhibitors, primary screen, luminescence; cancer stem cell-like cells viability; inhibition, % at 7.5 µM; 1.1% of 300,000 active; AID 2717, 2010;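 active = mean at 75% or more and at least half the replicates too; tested in HMLE shEcad cells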;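 also: 0% = median of negative and 100% = median of positive control wells; the first replicate is given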
# Env fusion inh = inhibitors of HIV-1 Env-driven cell-cell fusion, primary screen, HeLa-JRFL effector, CEM21 target cells, luciferase. inhibition, % at 12.3 µM. 1.1% of 360,000 active. AID 651610, 2012;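 active = mean replicate inhibition score of at least 50 and every replicate individually at or above 50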;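 also: 0% = plate neutral controls and 100% = maraviroc near 300 nM; one replicate is shown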
# PABP polyA inh = PABP poly(A) RNA binding inhibitors, primary screen, biochemical, fluorescence polarization, uHTS; 1% of 290,000 active; inhibition, % at 35 µM; Polyadenylate-binding protein 1 (Homo sapiens), P11940; AID 2014, 2009;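 active = 50% or more with normal probe brightness, or confirmed in later tests; about a fifth of its hits are not listed in these tables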;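 also: calls also rest on retests at 20 µM and on dose response follow-up; controls were probe without protein and protein plus probe with vehicle; some compounds called inactive have numbers as strong as hits; many hits fall short of the cut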
# Target sequence (P11940 whole entry, looked up): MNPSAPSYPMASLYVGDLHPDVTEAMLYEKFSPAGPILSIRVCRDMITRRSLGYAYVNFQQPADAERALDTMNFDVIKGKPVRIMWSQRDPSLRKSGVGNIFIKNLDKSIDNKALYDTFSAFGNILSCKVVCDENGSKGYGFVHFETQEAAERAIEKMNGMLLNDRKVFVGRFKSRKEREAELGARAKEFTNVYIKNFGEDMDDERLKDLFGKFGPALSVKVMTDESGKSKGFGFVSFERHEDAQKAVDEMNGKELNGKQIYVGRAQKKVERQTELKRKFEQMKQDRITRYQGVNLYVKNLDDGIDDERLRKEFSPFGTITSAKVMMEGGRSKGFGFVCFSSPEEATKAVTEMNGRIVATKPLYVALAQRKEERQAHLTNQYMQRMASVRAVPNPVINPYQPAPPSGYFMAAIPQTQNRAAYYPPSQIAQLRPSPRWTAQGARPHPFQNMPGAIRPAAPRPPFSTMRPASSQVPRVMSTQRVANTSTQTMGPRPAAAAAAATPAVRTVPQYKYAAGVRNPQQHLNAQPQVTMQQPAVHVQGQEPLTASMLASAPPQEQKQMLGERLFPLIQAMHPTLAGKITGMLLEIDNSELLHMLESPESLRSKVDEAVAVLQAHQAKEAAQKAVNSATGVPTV
# Rce1 inhib = yeast Rce1p protease inhibitors, primary screen, biochemical, fluorescence, cell-free homogeneous. CAAX prenyl protease 2 (Saccharomyces cerevisiae (strain ATCC 204508 / S288c)), Q03530. yeast membranes, quenched prenylated peptide cleavage fluorescence. calls only. 0.27% of 290,000 active. AID 2563, 2010;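 active = fall in fluorescence gain of 50% or more versus controls, with final raw signal at or below 3038400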;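 also: plate controls were neutral control wells for no effect and wells lacking membranes for full effect; tested at 10 µM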
# Target sequence (Q03530 whole entry, looked up): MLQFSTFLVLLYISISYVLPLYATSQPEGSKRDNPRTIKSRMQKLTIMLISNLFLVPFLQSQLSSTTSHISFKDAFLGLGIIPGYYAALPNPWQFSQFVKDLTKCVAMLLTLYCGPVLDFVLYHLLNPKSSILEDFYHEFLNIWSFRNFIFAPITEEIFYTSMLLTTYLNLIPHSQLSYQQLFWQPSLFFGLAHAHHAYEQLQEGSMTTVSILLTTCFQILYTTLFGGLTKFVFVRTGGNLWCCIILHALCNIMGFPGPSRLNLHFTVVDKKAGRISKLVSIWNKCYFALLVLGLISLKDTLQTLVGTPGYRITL
# MT1-MMP act inh = blockers of MT1-MMP proenzyme processing, primary screen, HT1080 RFP-PRO-GFP cells, GFP/RFP fluorescence; Matrix metalloproteinase-14 (Homo sapiens), P50281; GFP/RFP ratio fluorescence, overnight; percent of plate control window, DMSO zero; GFP/RFP ratio change, % at 20 µM; 0.061% of 360,000 active; AID 651647, 2012;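 active = GFP/RFP ratio change of at least 30% with cell ATP level not reduced by more than half and red fluorescence within 50% of control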; also: strong numbers were not always called active
#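 Assay system: RFP-PRO-GFP reporter HT1080 cells; read-out basis: GFP/RFP fluorescence ratio; benchmarks: DMSO wells and RFP-L50D-GFP cells; doses: 20 µM single dose, 1% DMSO; schedule: overnight cell settling, then overnight compound exposure, 37 °C, 5% CO2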
# Yeast UUG start = modulators of yeast start codon fidelity, primary screen, whole organism, S. cerevisiae, single point, plate reader; S. cerevisiae UUG-firefly luciferase reporter, luminescence/redox ratio; activity score, % at 18.7 µM; 0.13% of 350,000 active;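 active = replicate mean at a twofold rise or more, about +100% in these data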;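 also: firefly luciferase made from a UUG start codon reports start codon fidelity; reporter light over untreated wells divided by growth signal over untreated wells; some hits fall short of that in this replicate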
# eIF4H inh = human eIF4H binding inhibitors, primary screen, translation initiation inhibitor project, biochemical, uHTS, fluorescence polarization; inhibition, % at 35 µM; Eukaryotic translation initiation factor 4H (Homo sapiens), Q15056; eIF4H fluorescence polarization binding assay; 0.94% of 290,000 active; AID 2012, 2009;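 active = 50% or more with normal probe brightness, or confirmed in later tests; about a fifth of its hits are not listed in these tables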;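 also: calls also rest on retests at 20 µM and on dose response follow-up; 0% = protein and probe with vehicle and 100% = probe without protein; strong numbers were not always called active; many hits fall short of the cut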
# MT1-MMP act inh RFP = further read-out of MT1-MMP act inh, marked with its call; RFP signal change, %; measured here: RFP expression control read;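 0 = vehicle wells; hits needed this value within 50% of zero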
# * = called active by the depositor; i = inactive; / = no result given. These rows are one share of the data; count on the stated rates, not on these rows.
SMILES,CSC inhib,Env fusion inh,PABP polyA inh,Rce1 inhib,MT1-MMP act inh,MT1-MMP act inh RFP,Yeast UUG start,eIF4H inh
Cc1ccc(NN=Nc2nc3c([nH]2)c(=O)n(C)c(=O)n3C)cc1,9.4,/,3.0,i,-7.5,0.0,/,0.6
CC(C)(C)C(=O)CSc1ccc(S(=O)(=O)N2CCN(Cc3ccccc3)CC2)cn1,30.4,0.6,/,/,-0.7,-0.9,-6.4,/
O=C(Nc1ccc2nc(-c3ccccc3)oc2c1)c1ccco1,17.3,/,-6.5,i,5.2,2.1,-13.0,-10.2
O=C(COC(=O)c1cc(S(=O)(=O)N2CCOCC2)ccc1Cl)NC1CC1,-10.8,0.1,/,/,2.3,2.2,-5.2,/
Cc1ccc2cc(CN(C)C(=O)C3CCCO3)c(=O)[nH]c2c1 (stereo unspecified),-1.1,/,4.0,i,1.7,5.4,6.7,-3.0
COc1ccc(C)cc1S(=O)(=O)n1ccnc1C,-11.0,-9.7,-6.9,i,3.2,7.0,-21.1,-1.2
O=C1NC(Cc2c[nH]c3ccccc23)C(=O)N1Cc1ccccc1 (stereo unspecified),4.9,9.1,-1.8,i,-1.2,2.3,-11.6,-6.6
COCCN1C(=O)Cc2c1nc(N)c1c(N)nc(N3CCN(c4ccc(F)cc4)CC3)c(C#N)c21,-7.1,-6.2,-1.2,i,0.6,0.9,/,26.1
Cc1cc(N2C(=O)C(O)=C(C(=O)c3ccco3)C2c2ccc(O)cc2)no1 (stereo unspecified),-0.4,/,8.2,i,3.8,6.5,-18.7,2.6
CCc1ccc2[nH]c(=O)c(CN(CCCN3CCOCC3)C(=O)Nc3cccc(Cl)c3)cc2c1,8.2,/,-5.5,i,-12.0,-17.3,19.9,-4.6
CSCc1ccc(C(=O)NC(C)c2ccc(-n3ccnc3)cc2)cc1 (stereo unspecified),-12.0,-3.9,6.7,i,3.7,-0.1,-16.1,0.3
CSc1ccc(/C=C2\CCn3c2nc2cc(C(=O)O)ccc2c3=O)cc1,-12.6,-8.2,23.1,i,12.5,0.1,-0.5,-5.5
O=C(CN1CCCc2ccccc21)NCCc1ccc(Cl)cc1,-15.2,17.3,7.9,i,-8.9,1.2,/,-6.3
Cc1ccc(S(=O)(=O)N(C)C)cc1NC(=O)CN1C(=O)NC2(CCc3ccccc32)C1=O (stereo unspecified),/,-34.1,/,/,2.8,4.6,-6.2,/
Cc1ccc(Cl)cc1N1CCN(C(=O)c2ccc(NS(=O)(=O)c3c(C)noc3C)cc2)CC1,50.1,/,-1.9,i,6.1,-10.9,3.5,-7.6
O=C1CCCN2N=C(SCC(=O)Nc3ccc(OC(F)(F)F)cc3)SC2=N1,-2.9,3.0,-0.8,i,3.5,-6.1,-12.2,-5.9
COC(=O)N/N=C/c1c(C)nn(-c2cccc(Cl)c2)c1Cl,48.0,-16.8,5.6,i,-0.8,-2.4,-1.2,9.2
COC(=O)N(NC(=O)C(O)(c1ccccc1)c1ccccc1)c1ccccc1,/,-12.0,-6.2,i,-2.0,0.2,/,-3.6
CCn1c(-c2csc(-c3ccccc3)n2)n[nH]c1=S,/,/,7.3,i,-1.7,0.0,-24.3,-6.9
COc1cccc(-c2ncc3ccccc3c2COC(=O)c2ccc(F)cc2)c1,-0.8,-0.8,/,/,1.2,-6.3,-22.1,/
COc1ccc(C(=O)OCC(=O)NC(=O)NC(C)C)cc1OC,-9.1,1.7,3.3,i,4.8,4.1,/,-3.4
Cc1ccc(S(=O)(=O)N2CCN(C3CCN(Cc4ccccc4)CC3)CC2)cc1,/,/,-7.4,/,0.1,-0.4,-7.3,-10.2
COC(=O)CC1C(=O)NCCN1C(=O)c1sc2ccccc2c1Cl (stereo unspecified),-8.6,8.6,4.8,i,-0.7,-0.1,/,-2.3
O=C(O)c1ccc(Cl)c(NC(=S)NC(=O)c2cccc(COc3ccccc3)c2)c1,19.1,-0.4,3.6,i,2.1,0.9,-9.2,26.3
CCN(Cc1ccccc1)C(=O)COC(=O)c1cc(S(=O)(=O)Nc2c(C)n(C)n(-c3ccccc3)c2=O)ccc1C,-13.5,-26.3,5.1,i,2.2,0.5,4.3,0.2
COc1cc(NC(=O)c2onc(C)c2Cl)cc(OC)c1OC,-8.8,3.9,4.3,i,6.8,7.7,-8.2,5.7
CC(=O)Nc1ccc(N=NN2CCOCC2)cc1,-8.4,5.7,-1.6,i,3.0,-2.6,/,-7.6
COc1ccc(C2=NOC(CNC(=S)N3CCOCC3)C2)cc1 (stereo unspecified),13.8,-31.4,3.6,i,3.4,0.7,/,-8.3
Cc1c(NC(=O)C(C)OC(=O)CCc2ccccc2)c(=O)n(-c2ccccc2)n1C (stereo unspecified),-16.0,-0.6,22.0,i,3.4,4.2,/,-5.3
CC(C)c1ccc(CNc2ncccn2)cc1,-3.3,-81.9,4.0,i,-1.4,3.0,-0.7,10.0

# Next part; the last 6 above are carried over.
SMILES,CSC inhib,Env fusion inh,PABP polyA inh,Rce1 inhib,MT1-MMP act inh,MT1-MMP act inh RFP,Yeast UUG start,eIF4H inh
CCN(Cc1ccccc1)C(=O)COC(=O)c1cc(S(=O)(=O)Nc2c(C)n(C)n(-c3ccccc3)c2=O)ccc1C,-13.5,-26.3,5.1,i,2.2,0.5,4.3,0.2
COc1cc(NC(=O)c2onc(C)c2Cl)cc(OC)c1OC,-8.8,3.9,4.3,i,6.8,7.7,-8.2,5.7
CC(=O)Nc1ccc(N=NN2CCOCC2)cc1,-8.4,5.7,-1.6,i,3.0,-2.6,/,-7.6
COc1ccc(C2=NOC(CNC(=S)N3CCOCC3)C2)cc1 (stereo unspecified),13.8,-31.4,3.6,i,3.4,0.7,/,-8.3
Cc1c(NC(=O)C(C)OC(=O)CCc2ccccc2)c(=O)n(-c2ccccc2)n1C (stereo unspecified),-16.0,-0.6,22.0,i,3.4,4.2,/,-5.3
CC(C)c1ccc(CNc2ncccn2)cc1,-3.3,-81.9,4.0,i,-1.4,3.0,-0.7,10.0
O=C(CN1CCCCCCC1)Nc1ccc(Cl)cc1Cl,-1.8,7.0,14.2,i,1.6,-1.3,/,-3.5
CC(=O)/C=C/c1ccc(C)o1,9.7,1.0,-1.1,i,-2.4,4.8,2.2,21.1
COC(=O)c1cc(OC)c(OC)cc1NC(=O)CSc1nnnn1Cc1ccccc1,0.6,/,1.8,i,-1.2,-6.7,-21.9,-9.0
Cc1cc(=O)n2nc(N3CCCC(C(=O)NCCCN4CCc5ccccc5C4)C3)sc2n1 (stereo unspecified),/,/,-0.7,i,1.6,6.0,-15.2,4.8
CCOc1ccc(S(=O)(=O)N2CCOCC2)cc1NC(=O)CN1C(=O)NC(C)(C2CC2)C1=O (stereo unspecified),/,6.1,/,/,-1.2,1.3,-8.3,/
CCC1(C)N=C(c2ccc3c(c2)OCO3)CC(c2ccccc2O)N1 (stereo unspecified),20.4,/,7.5,i,-11.7,0.0,-13.3,-8.5
CCc1cc(=O)oc2cc(C)cc(OCc3nn[nH]n3)c12,1.9,/,11.1,i,1.5,4.4,-18.5,-1.6
CC(C)CNC1=C(C(=S)Nc2ccccc2)C(=O)CC(C)(C)C1,70.3,36.2,3.9,i,-0.4,0.4,/,11.3
CCCCn1c(N)c(N(CCOC)C(=O)CC(NC(=O)c2ccccc2Cl)c2ccccc2)c(=O)[nH]c1=O (stereo unspecified),/,-2.7,/,/,-2.9,4.5,-35.3,/
CCOc1ccc(CN2CCN(Cc3cn(CC)nc3C)CC2CCO)cc1 (stereo unspecified),3.5,-6.6,-2.9,i,-5.4,-5.0,/,-9.6
COCCN(C(=O)c1snc(C(N)=O)c1N)C(C(=O)NC1CCCCC1)c1ccc(OC)c(OC)c1 (stereo unspecified),7.6,8.9,11.4,i,1.8,3.9,3.2,2.0
O=C1C(Cl)=C(N2CCCCC2)C(=O)N1c1ccccc1Cl,-20.4,-38.8,-6.9,i,2.1,7.6,5.3,0.3
O=C1SCCC1NS(=O)(=O)c1ccccc1[N+](=O)[O-] (stereo unspecified),/,8.2,13.3,i,-2.5,2.1,/,-2.7
CCOc1cc(NC(=S)NCC2CCCO2)c(OCC)cc1NC(=O)C1CC1 (stereo unspecified),-7.2,3.7,2.0,i,-2.7,-2.4,/,-1.1
CCC(=O)Nc1nc2ccc3sc(C)nc3c2s1,15.0,-60.0,-8.6,i,-3.5,-3.9,/,6.2
CC(C)S(=O)(=O)NC(=O)C1(C)CCN1C(=O)Cc1ccccc1Cl (stereo unspecified),/,-11.9,/,/,-2.1,-0.7,-8.9,/
Cn1c(N)c(C(=O)COC(=O)c2cnc(Cl)c(Cl)c2)c(=O)n(C)c1=O,-7.2,5.2,-2.9,i,1.4,0.4,/,-1.6
Cc1ccccc1OCCC(=O)Nc1ccc(N2CCOCC2)cc1N1CCOCC1,-1.3,-13.5,/,i,-1.8,-0.7,-8.6,/
Nc1c(N(CCC2=CCCCC2)C(=O)CCCOc2ccccc2)c(=O)[nH]c(=O)n1Cc1ccccc1,-9.9,0.8,/,i,-11.5,-5.4,13.2,/
COc1ccccc1NC(=O)N1c2ccc(F)cc2CCC1C (stereo unspecified),-9.4,17.0,5.9,i,5.2,4.8,-16.9,-9.0
Cc1cccc(NC(=O)C(C)SCc2nc3sc4c(c3c(=O)[nH]2)CCCC4)n1 (stereo unspecified),4.9,1.7,/,i,-27.1,-0.3,-10.5,/
O=C(Nc1ccc(Oc2ncccn2)cc1)c1ccco1,-4.7,-48.4,/,i,1.5,6.6,-10.4,/
CCCCOC(=O)c1ccc(NC(=O)c2ccoc2C)cc1,20.6,3.3,-2.0,i,-5.1,-6.0,6.5,-8.5
Cc1nc2ccc(NC(=S)N3CCN(c4ccccn4)CC3)cc2nc1C,-11.5,0.4,3.1,i,5.0,5.2,/,0.6

# Quoted from the listing:
# Nc1c(N(CCC2=CCCCC2)C(=O)CCCOc2ccccc2)c(=O)[nH]c(=O)n1Cc1ccccc1 @ CSC inhib = -9.9
# Cn1c(N)c(C(=O)COC(=O)c2cnc(Cl)c(Cl)c2)c(=O)n(C)c1=O @ eIF4H inh = -1.6

# Source: PubChem (several laboratories)
